High-throughput results from PubChem.
Shh pathway inh = Hedgehog pathway signaling inhibitors, primary screen, luminescence, Shh-LIGHT2 cells, Gli-luciferase | 22,000 compounds, 2.1% hits | Shh-LIGHT2 Gli-luciferase reporter, 30 h | AID 2313, 2010 | inhibition, % (no concentration beside the values);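 active means replicate mean of 65% or more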;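 further: pathway switched on by Shh-conditioned medium diluted 1 in 25 in low serum; 100 nL library stock added to about 40 µL; 0% = median of neutral wells and 100% = positive control level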
YB-1 expr inh = inhibitors of YB-1 gene expression, primary screen, cell-based, fluorescence. U2OS, qRT-PCR YB-1 vs CDIP delta delta Cp, 16 h; active compounds read high; zero = DMSO, each unit about twofold. delta delta Cp (YB-1 minus CDIP) (no concentration beside the values). 30,000 compounds, 0.37% hits;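 active means delta delta Cp rounded down to an integer at or above 3, about 3 SD of DMSO wells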;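 further: higher means less YB-1 transcript or more CDIP transcript relative to DMSO; stock transfer was 100 nL into about 100 µL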
PD-1 reverse act = activators reversing PD-1 mediated T-cell inhibition, primary screen, luminescence, primary human CD4 T cells, PD-L1 beads. activation, % (concentration not given with the values). 29,000 tested, under 10 active. CellTiter-Glo 96 h;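 active means replicate mean of 50% or more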;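 further: 0% = median vehicle wells and 100% = positive control; 100 nL library stock added to about 50 µL; numbers are from one replicate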
MITF inh = inhibitors of MITF, primary screen, MITF inhibitor project, cell-based, luminescence. TRPM1 promoter luciferase, 24 h. inhibition, % (no concentration beside the values). 37,000 compounds, 0.28% hits. AID 2240, 2010;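 active means most replicates at 85% or more, or half of them and the mean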;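 further: human melanocyte line stably carrying TRPM1 promoter luciferase reporter; 0% = vehicle wells and 100% = a positive control; the first replicate is given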
The depositor's hits bear a star; · = not tested or not shown.

SMILES	Shh pathway inh	YB-1 expr inh	PD-1 reverse act	MITF inh
Cc1noc(C)c1S(=O)(=O)Nc1cccc2c1O[C@H](CN(C)Cc1ccc(C(=O)Nc3ccccc3N)cc1)[C@H](C)CN([C@@H](C)CO)C2=O	·	0.31	-2.2	9
C[C@H](CO)N1C[C@H](C)[C@H](CN(C)Cc2ccc(Cl)c(Cl)c2)Oc2ccc(NC(=O)CCC(F)(F)F)cc2C1=O	·	0.12	0.9	-7
C[C@@H]1CCCCO[C@H](CN(C)C(=O)CCC(F)(F)F)[C@@H](C)CN([C@H](C)CO)C(=O)c2cc(NS(=O)(=O)c3ccccc3)ccc2O1	2	0.3	-3.7	0
COc1cc(C)c(Br)cc1S(=O)(=O)NCCN1CCOCC1	·	·	1.9	-15
C[C@@H]1CCCCO[C@@H](CN(C)C(=O)C2CCCCC2)[C@@H](C)CN([C@H](C)CO)C(=O)c2cc(NC(=O)Nc3ccc(F)cc3)ccc2O1	-4	0.21	0.2	15
Cc1ccc(OCC(=O)Oc2cccc(NC3=NS(=O)(=O)c4ccccc43)c2)cc1	·	·	0.6	7
C[C@H](CO)N1C[C@H](C)[C@H](CN(C)C)Oc2ccc(NC(=O)C3CC3)cc2CC1=O	-10	0.0046	0.5	1
COc1cc2c(cc1NC(=O)COc1ccc(Br)cc1Cl)oc1ccccc12	·	·	0.0	-4
C[C@@H]1CN([C@H](C)CO)C(=O)c2cc(NC(=O)c3ccncc3)ccc2O[C@@H]1CN(C)Cc1ccc(Oc2ccccc2)cc1	31	-0.33	·	-15
Cc1ccc(S(=O)(=O)Nc2ccc3c(c2)C(=O)N([C@@H](C)CO)C[C@H](C)[C@H](CN(C)Cc2ccc(C(=O)O)cc2)O3)cc1	-9	-0.096	2.1	-2
Cc1ccc(C(=O)Nc2ccc(OCC(=O)O)cc2)cc1	·	·	2.5	38
COc1ccc(-c2nnc(SCC(=O)c3ccc(Cl)cc3)n2-c2ccc(C)cc2)cc1OC	·	·	-4.8	3
COc1ccc(NC(=O)N(C)C[C@H]2Oc3c(NC(=O)C4CCOCC4)cccc3C(=O)N([C@H](C)CO)C[C@H]2C)cc1	-13	-0.31	·	4
C[C@@H]1CN([C@H](C)CO)C(=O)c2cc(NC(=O)C3CCCCC3)ccc2O[C@@H]1CN(C)S(=O)(=O)c1cn(C)cn1	-30	-0.4	0.2	1
CNC[C@@H]1Oc2ccc(NS(=O)(=O)c3ccc(OC)cc3)cc2C(=O)N([C@@H](C)CO)C[C@H]1C	-8	0.036	0.5	6
CCOC(=O)Cc1n[nH]c(CC(=O)OCC)n1	-23	-0.14	2.6	-1
CCOC(=O)C1=C(Cn2cnc3ccccc32)NC(=O)NC1c1cc(C)ccc1C (stereo unspecified)	·	·	0.8	2
C[C@@H]1CN([C@H](C)CO)C(=O)Cc2cc(NC(=O)c3ccncc3)ccc2O[C@@H]1CN(C)CC1CC1	·	0.18	0.4	0
Cc1ccc(S(=O)(=O)Nc2ccc3c(c2)CC(=O)N([C@@H](C)CO)C[C@H](C)[C@H](CN(C)C(=O)NC(C)C)O3)cc1	-17	-0.27	·	-5
C[C@@H]1CN([C@H](C)CO)C(=O)c2cccc(NS(=O)(=O)c3ccc(Cl)cc3)c2O[C@H]1CN(C)CC1CCCCC1	-4	0.39	-3.7	10
Cc1noc(C)c1NC(=O)Nc1ccc2c(c1)CC(=O)N([C@H](C)CO)C[C@@H](C)[C@H](CN(C)Cc1ccc(C(F)(F)F)cc1)O2	-37	-0.57	0.6	-4
CCc1ccc(NC(=O)CC2NCCNC2=O)cc1 (stereo unspecified)	·	·	2.4	-30
CC(C)NC(=O)N(C)C[C@H]1Oc2ccc(NC(=O)NC3CCCCC3)cc2C(=O)N([C@@H](C)CO)C[C@@H]1C	·	-0.85	1.3	-4
Cc1noc(C)c1NC(=O)N(C)C[C@@H]1OCCCC[C@@H](C)Oc2ccc(NS(=O)(=O)c3ccc(F)cc3)cc2C(=O)N([C@H](C)CO)C[C@@H]1C	-35	-0.15	·	0
C[C@@H]1CN([C@H](C)CO)C(=O)c2cc(NC(=O)Nc3cccc4ccccc34)ccc2O[C@H]1CN(C)S(C)(=O)=O	-31	0.32	0.7	5
CC(C)NC(=O)N(C)C[C@H]1Oc2ccc(NS(=O)(=O)c3cn(C)cn3)cc2CC(=O)N([C@@H](C)CO)C[C@H]1C	-53	-0.22	2.5	-11
Cc1noc(C)c1S(=O)(=O)N(C)C[C@H]1Oc2ccc(N(C)C)cc2CC(=O)N([C@@H](C)CO)C[C@H]1C	10	0.66	·	-20
C[C@@H]1CN([C@H](C)CO)C(=O)c2cc(NC(=O)c3ccncc3)ccc2O[C@@H]1CN(C)C(=O)Nc1ccccc1	-27	-0.15	·	-12
C=C1[C@H](O)C[C@H]2[C@@H](/C=C(\C)C(=O)[C@@]3(O)C[C@H](C)[C@H](O)[C@@H]3[C@H]1O)C2(C)C	12	1.3	-0.4	5
CC(C)NC(=O)Nc1cccc2c1O[C@@H](CN(C)Cc1ccc3c(c1)OCO3)[C@H](C)CN([C@@H](C)CO)C2=O	1	-0.34	0.8	5
COc1ccc(CCN(C)CCc2ccc(OC)c(OC)c2)cc1OC	-7	0.044	·	6
O=C(CSc1nc(-c2ccccc2)cc(=O)[nH]1)Nc1ccc(Cl)cc1	·	·	0.2	-5
CC(C)NC(=O)N(C)C[C@@H]1Oc2ccc(NC(=O)Cc3ccccc3)cc2C(=O)N([C@H](C)CO)C[C@H]1C	·	0.33	-0.4	-7
C[C@H]1CN([C@@H](C)CO)C(=O)c2cccc(NC(=O)NC3CCCCC3)c2O[C@H]1CN(C)C(=O)NC1CCCCC1	-17	-0.073	3.2	6
C[C@@H]1CN([C@H](C)CO)C(=O)Cc2cc(NC(=O)CCCCCC(=O)Nc3ccccc3N)ccc2O[C@@H]1CN(C)S(=O)(=O)c1ccc(F)cc1	·	0.42	-0.5	1
Cc1noc(C)c1NC(=O)N(C)C[C@@H]1Oc2ccc(NC(=O)NC3CCCCC3)cc2CC(=O)N([C@@H](C)CO)C[C@@H]1C	·	-0.42	0.9	-8
C[C@@H]1CN([C@@H](C)CO)C(=O)c2cc(NC(=O)Cc3ccccc3)ccc2O[C@@H]1CN(C)C(=O)Nc1ccc2c(c1)OCO2	-15	0.61	-0.7	-8
C[C@@H]1CN([C@@H](C)CO)C(=O)Cc2cc(NC(=O)Cn3cnnn3)ccc2O[C@@H]1CN(C)S(=O)(=O)c1ccc(Cl)cc1	-1	-0.3	·	-4
C[C@@H]1CN([C@H](C)CO)C(=O)Cc2cc(NC(=O)Nc3ccc4c(c3)OCO4)ccc2O[C@H]1CN(C)C	-10	11*	-0.1	3
COc1ccc(NC(=O)N(C)C[C@@H]2Oc3ccc(NS(=O)(=O)c4ccc(OC)cc4)cc3CC(=O)N([C@@H](C)CO)C[C@@H]2C)cc1	·	-0.22	-1.5	0
COc1ccc(S(=O)(=O)Nc2ccc3c(c2)C(=O)N([C@H](C)CO)C[C@@H](C)[C@@H](CN(C)S(=O)(=O)c2ccc(F)cc2)O3)cc1	·	0.078	-1.2	7
O=C(COc1ccc(S(=O)(=O)N2CCOCC2)cc1)Nc1ccccc1C(F)(F)F	·	·	0.4	-9
C[C@H]1CN([C@@H](C)CO)C(=O)c2cccc(NC(=O)c3nc4ccccc4s3)c2O[C@@H]1CN(C)S(C)(=O)=O	18	-0.23	·	-4
C[C@H]1CN([C@@H](C)CO)C(=O)Cc2cc(NC(=O)Nc3ccc(F)cc3)ccc2O[C@H]1CN(C)C(=O)Nc1ccc(F)cc1	-33	-0.039	·	-1
COc1ccc(-c2cc(=O)c3c(OC)c(OC)c(OC)c(OC)c3o2)cc1OC	52	-0.54	2.2	-27
O=C(Cn1cnc2scc(-c3cccc([N+](=O)[O-])c3)c2c1=O)Nc1ccc(Cl)cc1	·	·	-1.7	52
O=S1(=O)CCC(NS(=O)(=O)c2cccc3cccnc23)C1 (stereo unspecified)	·	·	1.8	-53
Cc1noc(C)c1NC(=O)Nc1ccc2c(c1)C(=O)N([C@H](C)CO)C[C@H](C)[C@@H](CN(C)S(=O)(=O)c1cccs1)O2	-9	-0.15	0.2	-15
N#Cc1cc2c(nc1SCC(=O)Nc1ccccc1C(F)(F)F)CCC2	·	·	5.4	-97
CNC[C@@H]1Oc2ccc(NC(=O)Nc3ccc(F)cc3)cc2C(=O)N([C@H](C)CO)C[C@H]1C	·	0.48	-1.4	-5
C[C@H]1CN([C@@H](C)CO)C(=O)c2cc(N(C)C)ccc2O[C@@H]1CN(C)C(=O)Nc1ccc(C(F)(F)F)cc1	·	0.053	0.7	-12
COc1ccc(NC(=O)C2CC(C)=C(C)CC2C(=O)O)c(N2CCOCC2)n1 (stereo unspecified)	-30	-0.37	-0.5	-4
CCn1c(SCC(=O)Nc2cc(Cl)ccc2OC)nnc1-c1ccc(Br)cc1	·	·	2.2	-11
Cc1noc(C)c1S(=O)(=O)N(C)C[C@H]1Oc2ccc(NS(=O)(=O)c3ccc(F)cc3)cc2CC(=O)N([C@@H](C)CO)C[C@H]1C	-1	-0.0046	·	-10
Cc1ccc(S(=O)(=O)N(C)C[C@H]2Oc3ccc(NS(=O)(=O)c4ccc(F)cc4)cc3C(=O)N([C@@H](C)CO)C[C@H]2C)cc1	4	0.16	-0.9	11
COc1ccc(NC(=S)SC)cc1OC	-55	0.15	1.3	24
Cc1noc(C)c1S(=O)(=O)N(C)C[C@H]1Oc2c(NC(=O)c3nc4ccccc4s3)cccc2C(=O)N([C@H](C)CO)C[C@H]1C	15	-0.55	1.1	-8
COc1ccc(NC(=O)Nc2cccc3c2O[C@@H](CN(C)S(=O)(=O)c2ccccc2)[C@H](C)CN([C@@H](C)CO)C3=O)cc1	-45	0.083	-0.3	-1
C[C@H]1CN([C@@H](C)CO)C(=O)c2cccc(NS(=O)(=O)c3ccc(F)cc3)c2O[C@H]1CN(C)S(C)(=O)=O	-3	0.15	0.3	5
COc1ccc(CCn2c(C)nc(=O)c(-c3ccccc3)c2C)cc1OC	-6	-0.28	0.8	9

Rewritten with two lines to a compound: 2 of the compounds above.
Values run as follows: Shh pathway inh	YB-1 expr inh	PD-1 reverse act	MITF inh
COc1ccc(CCn2c(C)nc(=O)c(-c3ccccc3)c2C)cc1OC
  -6	-0.28	0.8	9
COc1ccc(NC(=S)SC)cc1OC
  -55	0.15	1.3	24

Single records, as listed above:
Cc1noc(C)c1NC(=O)Nc1ccc2c(c1)C(=O)N([C@H](C)CO)C[C@H](C)[C@@H](CN(C)S(=O)(=O)c1cccs1)O2 reads Shh pathway inh = -9; YB-1 expr inh = -0.15; PD-1 reverse act = 0.2; MITF inh = -15
COc1ccc(NC(=O)Nc2cccc3c2O[C@@H](CN(C)S(=O)(=O)c2ccccc2)[C@H](C)CN([C@@H](C)CO)C3=O)cc1 reads Shh pathway inh = -45; YB-1 expr inh = 0.083; PD-1 reverse act = -0.3; MITF inh = -1
Cc1noc(C)c1S(=O)(=O)N(C)C[C@H]1Oc2c(NC(=O)c3nc4ccccc4s3)cccc2C(=O)N([C@H](C)CO)C[C@H]1C reads Shh pathway inh = 15; YB-1 expr inh = -0.55; PD-1 reverse act = 1.1; MITF inh = -8

Other structures follow.
SMILES	Shh pathway inh	YB-1 expr inh	PD-1 reverse act	MITF inh
CS(=O)(=O)CCSc1ncccc1C(=O)NCc1cccs1	-39	-0.34	0.6	-4
C[C@H](CO)N1C[C@H](C)[C@H](CN(C)Cc2ccc3c(c2)OCO3)Oc2ccc(NC(=O)CCCCCC(=O)Nc3ccccc3N)cc2CC1=O	·	-0.092	0.0	30
COc1ccc(CN(C)C[C@@H]2Oc3c(NC(=O)Nc4ccc(F)cc4)cccc3C(=O)N([C@H](C)CO)C[C@@H]2C)cc1	13	-0.46	0.1	11
COc1ccc(NC(=O)N(C)C[C@H]2Oc3c(NC(=O)c4ccc(-c5nccs5)cc4)cccc3C(=O)N([C@@H](C)CO)C[C@@H]2C)cc1	-18	0.49	-1.2	-7
C[C@H]1CN([C@@H](C)CO)C(=O)c2cccc(NC(=O)c3ccncc3)c2O[C@@H]1CN(C)Cc1ccc(Oc2ccccc2)cc1	51	0.32	-2.6	42
Clc1ccc(-c2nc3sccn3c2/C=N/OCc2ccc(Cl)c(Cl)c2)cc1	-42	-0.32	0.6	2
C[C@H](CO)N1C[C@H](C)[C@@H](CN(C)C(=O)Nc2cccc3ccccc23)Oc2ccc(NC(=O)Cc3cn(C)c4ccccc34)cc2C1=O	-7	-0.31	-1.4	10

Only part of the results is shown. The share of hits here may be higher or lower than overall.
